Assay outcomes: PubChem, Broad Institute
Hedgehog inh – Hedgehog pathway signaling inhibitors, primary screen, luminescence, Shh-LIGHT2 cells, Gli-luciferase. Shh-LIGHT2 Gli-luciferase reporter, 30 h. inhibition, % (no concentration beside the values). hit rate 2.1% among 22,000. AID 2313, 2010;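 active = replicate mean of 65% or more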;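 note: pathway switched on by Shh-conditioned medium diluted 1 in 25 in low serum; 100 nL library stock added to about 40 µL; 0% = median of neutral wells and 100% = positive control level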
MITF inhib – inhibitors of MITF, primary screen, MITF inhibitor project, cell-based, luminescence; TRPM1 promoter luciferase, 24 h; inhibition, % (test concentration not listed); hit rate 0.28% among 37,000; AID 2240, 2010;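 active = most replicates at 85% or more, or half of them and the mean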;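 note: human melanocyte line stably carrying TRPM1 promoter luciferase reporter; 0% = vehicle wells and 100% = a positive control; the first replicate is given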
YB-1 expression – inhibitors of YB-1 gene expression, primary screen, cell-based, fluorescence | U2OS, qRT-PCR YB-1 vs CDIP delta delta Cp, 16 h; hits give high values; zero = DMSO, each unit about twofold | delta delta Cp (YB-1 minus CDIP) (concentration not given with the values) | hit rate 0.37% among 30,000;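 active = delta delta Cp rounded down to an integer at or above 3, about 3 SD of DMSO wells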;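 note: higher means less YB-1 transcript or more CDIP transcript relative to DMSO; stock transfer was 100 nL into about 100 µL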
PD-1 reverse act – activators reversing PD-1 mediated T-cell inhibition, primary screen, luminescence, primary human CD4 T cells, PD-L1 beads; 29,000 tested, under 10 active; activation, % (no concentration beside the values); CellTiter-Glo 96 h;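 active = replicate mean of 50% or more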;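 note: 0% = median vehicle wells and 100% = positive control; 100 nL library stock added to about 50 µL; numbers are from one replicate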
The depositor's hits bear a star; x = no result given. Only part of the results is shown; count on the stated rates, not on these rows.

smiles	Hedgehog inh	MITF inhib	YB-1 expression	PD-1 reverse act
C[C@@H]1CN([C@H](C)CO)C(=O)c2cc(NC(=O)CCN3CCOCC3)ccc2O[C@H]1CN(C)C	-17	-5	-0.18	x
COc1ccc(NC(=O)N(C)C[C@@H]2Oc3ccc(NC(=O)Nc4ccccc4)cc3CC(=O)N([C@H](C)CO)C[C@@H]2C)cc1	-12	-5	-0.01	-0.2
CC(C)NC(=O)N(C)C[C@@H]1Oc2c(NC(=O)c3cnccn3)cccc2C(=O)N([C@H](C)CO)C[C@H]1C	-24	-2	-0.16	0.6
C[C@@H]1CN([C@@H](C)CO)C(=O)c2cccc(NC(=O)NC3CCCCC3)c2O[C@@H]1CN(C)C(=O)Nc1ccc(F)cc1	4	9	-0.17	-0.3
C[C@@H]1CN([C@H](C)CO)C(=O)c2cc(NC(=O)CCC(F)(F)F)ccc2O[C@@H]1CN(C)Cc1ccccc1	x	2	-0.14	0.2
C[C@H](CO)N1C[C@H](C)[C@@H](CN(C)Cc2ccc(C(=O)Nc3ccccc3N)cc2)Oc2c(NS(=O)(=O)c3ccc(F)cc3)cccc2C1=O	x	15	-0.32	-0.8
C[C@H](CO)N1C[C@H](C)[C@@H](CN(C)Cc2ccc(Cl)c(Cl)c2)Oc2c(NC(=O)C3CCOCC3)cccc2C1=O	-2	-10	0.67	-0.4
CNC[C@H]1Oc2ccc(NC(=O)Nc3cccc4ccccc34)cc2C(=O)N([C@@H](C)CO)C[C@@H]1C	x	2	0.24	1.9
C[C@@H]1CCCCO[C@H](CN(C)S(=O)(=O)c2ccc(Cl)cc2)[C@@H](C)CN([C@H](C)CO)C(=O)c2cc(NS(=O)(=O)c3ccc(F)cc3)ccc2O1	13	35	0.1	x
COc1cc(C)c(C(=O)Oc2cc(C)c(C(=O)Oc3cc(C)c(C(=O)NC(C)C(=O)O)c(O)c3)c(O[C@@H]3O[C@H](CO)[C@@H](O)[C@H](O)[C@H]3O)c2)c(OC)c1 (stereo partly specified)	-10	6	1.1	-6.4
CN(CC(=O)O)S(=O)(=O)c1cc(Cl)ccc1Cl	x	-6	x	1.3
C[C@H]1CN([C@@H](C)CO)C(=O)Cc2cc(NC(=O)CCC(F)(F)F)ccc2O[C@H]1CN(C)C(=O)Nc1ccc(C(F)(F)F)cc1	-36	-9	-0.28	0.5
C[C@H](CO)N1C[C@H](C)[C@H](CN(C)S(=O)(=O)c2cn(C)cn2)Oc2ccc(NS(C)(=O)=O)cc2CC1=O	-12	-12	0.085	1.2
CC(Oc1ccc(Br)cc1)C(=O)Nc1ccccc1[N+](=O)[O-] (stereo unspecified)	x	-12	x	-1.1
O=S(=O)(CCN1CCSCC1)c1ccccc1	20	3	-0.14	0.4
C[C@@H]1CN([C@@H](C)CO)C(=O)c2cc(NC(=O)C3CC3)ccc2O[C@H]1CN(C)Cc1ccc(Cl)c(Cl)c1	6	2	-0.23	-1.0
COc1ccc([N+](=O)[O-])cc1N(CC(=O)Nc1ccccc1Cl)S(C)(=O)=O	x	-19	x	-1.0
Cc1sc(NC(=O)c2cc3ccccc3oc2=O)c(C(=O)NCc2cccnc2)c1C	x	-10	x	1.6
Cc1ccc(S(=O)(=O)N(C)C[C@H]2Oc3ccc(N(C)C)cc3C(=O)N([C@@H](C)CO)C[C@@H]2C)cc1	-2	-16	-0.011	1.1
C[C@@H]1CCCCO[C@@H](CN(C)Cc2ccc(C(=O)Nc3ccccc3N)cc2)[C@@H](C)CN([C@H](C)CO)C(=O)c2cc(NC(=O)Nc3cccc4ccccc34)ccc2O1	x	-30	0.12	-0.3
C[C@@H]1CN([C@H](C)CO)C(=O)c2cc(NS(=O)(=O)c3ccc(Cl)cc3)ccc2O[C@@H]1CN(C)S(C)(=O)=O	23	-10	0.013	2.5
CCOC(=O)c1c(NC(=O)Cn2nc([N+](=O)[O-])c(Cl)c2C)sc2c1CCC2	x	-3	x	-2.2
C[C@H](CO)N1C[C@H](C)[C@@H](CN(C)Cc2ccc3c(c2)OCO3)Oc2c(NC(=O)NC3CCCCC3)cccc2C1=O	-6	30	-0.2	-1.6
COc1ccc(NC(=O)Nc2ccc3c(c2)C(=O)N([C@H](C)CO)C[C@H](C)[C@H](CN(C)C(=O)Nc2ccc(F)cc2)OCCCC[C@@H](C)O3)cc1	36	1	-0.46	-3.7
Nc1nonc1N1CCCCC1	-19	3	-0.27	0.1
CC(C)NC(=O)N(C)C[C@H]1Oc2ccc(NC(=O)Nc3cccc4ccccc34)cc2C(=O)N([C@H](C)CO)C[C@@H]1C	-33	9	0.083	0.6
C[C@H](CO)N1C[C@H](C)[C@@H](CN(C)S(=O)(=O)c2ccc(Cl)cc2)Oc2ccc(NC(=O)Nc3cccc4ccccc34)cc2C1=O	-24	5	0.13	x
C[C@H](CO)N1C[C@H](C)[C@@H](CN(C)S(C)(=O)=O)Oc2c(NC(=O)c3nc4ccccc4s3)cccc2C1=O	28	-18	0.1	-1.2
O=C(OCc1ccco1)c1ccc(S(=O)(=O)N2CCCCC2)cc1	x	-3	x	-12
C=C1C2=CC(=O)O[C@@H](c3ccoc3)[C@]2(C)CCC1[C@@]1(C)C=CC(=O)C(C)(C)[C@@H]1CC(=O)OC (stereo partly specified)	-1	-15	0.37	x
CCSC(=O)NC1CCCCC1	2	-62	0.042	-1.0
C[C@@H]1CCCCO[C@H](CN(C)S(=O)(=O)c2ccccc2)[C@@H](C)CN([C@H](C)CO)C(=O)c2cc(NS(=O)(=O)c3cn(C)cn3)ccc2O1	-2	5	0.39	0.3
C[C@@H]1CN([C@H](C)CO)C(=O)c2cc(NC(=O)CCCN(C)C)ccc2O[C@H]1CN(C)C(=O)Nc1ccc(F)cc1	-17	-15	-0.29	0.8
CC1=C(C)CC(C(=O)c2ccc(C)cc2)C(C(=O)O)C1 (stereo unspecified)	11	3	1.9	-0.1
Nc1cc(=O)nc(SCC(=O)NCc2ccccc2)n1-c1ccccc1	-5	15	-0.18	-0.4
COc1ccc(C(=O)O)cc1S(=O)(=O)NCCc1ccc(F)cc1	x	-12	x	1.8
Cc1noc(C)c1S(=O)(=O)N(C)C[C@@H]1Oc2ccc(NS(=O)(=O)c3ccccc3)cc2C(=O)N([C@H](C)CO)C[C@@H]1C	-22	-11	0.19	-2.0
C[C@@H]1CN([C@@H](C)CO)C(=O)c2cccc(NS(=O)(=O)c3ccccc3)c2O[C@H]1CN(C)Cc1ccc(Oc2ccccc2)cc1	-19	-2	-0.39	x
COc1ccc(NC(=O)Nc2ccc3c(c2)C(=O)N([C@@H](C)CO)C[C@@H](C)[C@@H](CN(C)Cc2ccc(Cl)c(Cl)c2)O3)cc1	x	24	-0.084	2.4
Cc1cc(Br)cc(C)c1NC(=O)CSc1nnc(-c2cc3cc(Cl)ccc3o2)n1C	x	7	x	2.7
CCc1cc(C)cc(OCCn2cc(C=C3C(=O)NC(=O)NC3=O)c3ccccc32)c1	-1	47	-0.11	-23
Cc1noc(C)c1S(=O)(=O)N(C)C[C@@H]1Oc2c(NS(=O)(=O)c3cn(C)cn3)cccc2C(=O)N([C@H](C)CO)C[C@@H]1C	-16	1	0.031	1.6
C[C@@H]1CCCCO[C@@H](CN(C)S(=O)(=O)c2ccc(Cl)cc2)[C@@H](C)CN([C@H](C)CO)C(=O)c2cc(NC(=O)c3ccccc3)ccc2O1	46	31	-0.73	-4.3
COc1ccc(NC(=O)CSc2nc(-c3ccc(Cl)cc3)cc(C(F)(F)F)n2)c([N+](=O)[O-])c1	x	8	x	-1.1
CC(C)(C)C(=O)CSc1nnc(-c2ccco2)n1Cc1ccco1	x	-65	x	0.2
c1ccc2c(c1)OCC(c1nn3c(Cn4cnc5ccccc54)nnc3s1)O2 (stereo unspecified)	x	43	x	-3.9
Cc1ccc(S(=O)(=O)N(C)C[C@H]2Oc3c(cccc3N(C)C)C(=O)N([C@@H](C)CO)C[C@H]2C)cc1	28	4	0.32	-0.9
Cc1cc(C)c(S(=O)(=O)N(C)CC(=O)Nc2cccc(C)c2C)c(C)c1	x	5	x	-2.0
CC#CCc1cc2ccccc2c(=O)o1	0	-6	1.4	-0.9
C[C@H]1CN([C@@H](C)CO)C(=O)c2cc(NS(=O)(=O)c3ccc(Cl)cc3)ccc2O[C@@H]1CN(C)Cc1ccc(C(F)(F)F)cc1	8	5	0.23	-5.6
CC(C)Cc1ccc(/C=C/C(=O)N2CCCC2)cc1	-50	58	-0.44	-1.3
CC/C=C\CC1C(=O)C=C/C1=C/CCCCCCC(=O)O (stereo unspecified)	6	-20	1.2	3.2
COc1ccc(CCNC(=S)Nc2c(C)nn(C)c2C)cc1OC	x	12	x	-1.6
CNC[C@@H]1Oc2ccc(NC(=O)CCC(F)(F)F)cc2CC(=O)N([C@H](C)CO)C[C@@H]1C	-22	5	0.03	0.0
COc1cc2ccc(=O)oc2c(O[C@@H]2O[C@H](CO)[C@@H](O)[C@H](O)[C@H]2O)c1OC	10	-8	-0.21	3.4
CC(C)(C)c1cc(CN2CCOCC2)c(C(=O)O)o1	x	0	x	1.6
C[C@H]1CN([C@@H](C)CO)C(=O)c2cc(NC(=O)Nc3ccccc3)ccc2O[C@H]1CN(C)C(=O)Nc1ccccc1	x	-2	-0.014	0.9
C=C1CCC2(C(=O)OC3OC(CO)C(O)C(O)C3OC3OCC(O)C(O)C3O)CCC3(C)C(=CCC4C5(C)CCC(OC6OC(CO)C(O)C(O)C6O)C(C)(CO)C5CCC43C)C2C1 (stereo unspecified)	-6	14	-0.89	2.3
CC(=O)N1c2ccccc2C(=O)C1NC(N)=S (stereo unspecified)	x	-3	0.17	0.0
CC(C)(CO)NC(=O)c1sc2ccccc2c1Cl	x	-46	-0.15	-0.8

As entered above.
`C[C@H]1CN([C@@H](C)CO)C(=O)c2cc(NC(=O)Nc3ccccc3)ccc2O[C@H]1CN(C)C(=O)Nc1ccccc1` in YB-1 expression is listed with -0.014
`CC#CCc1cc2ccccc2c(=O)o1` in YB-1 expression is listed with 1.4
`Nc1cc(=O)nc(SCC(=O)NCc2ccccc2)n1-c1ccccc1` in PD-1 reverse act is listed with -0.4

Continuation:
smiles	Hedgehog inh	MITF inhib	YB-1 expression	PD-1 reverse act
CNC[C@H]1Oc2c(NC(=O)Nc3ccc(C(F)(F)F)cc3)cccc2C(=O)N([C@H](C)CO)C[C@H]1C	-10	-8	0.07	1.0
C[C@@H]1CN([C@H](C)CO)C(=O)c2cc(NS(C)(=O)=O)ccc2O[C@@H]1CN(C)C	x	2	-0.17	1.2
Cc1noc(C)c1NC(=O)N(C)C[C@H]1Oc2ccc(NC(=O)Nc3cccc4ccccc34)cc2C(=O)N([C@@H](C)CO)C[C@@H]1C	36	-1	-0.35	1.7
O=C(O)CCSc1nnc2c(n1)[nH]c1ccccc12	x	13	x	0.7
Oc1c(C(c2ccncc2)N2CCCC2)ccc2cccnc12 (stereo unspecified)	35	21	-0.51	-4.4
O=C(Cn1cc(C(=O)c2ccccc2F)c2ccccc21)Nc1ccccc1	x	65	x	-1.5
O=C(O)/C=C1\OC(=O)c2ccccc21	3	-3	-0.28	1.4
COc1ccc(OC)c(NS(=O)(=O)c2cc(OC)ccc2OC)c1	x	-2	x	-0.7
C=CC1(C)OCO/C1=C\C[N+](C)(C)C (stereo unspecified)	-29	-5	0.32	1.8
Cc1noc(C)c1S(=O)(=O)Nc1ccc2c(c1)C(=O)N([C@@H](C)CO)C[C@@H](C)[C@@H](CN(C)CC1CC1)O2	3	4	-0.27	0.4
Cc1noc(C)c1S(=O)(=O)N(C)C[C@H]1Oc2ccc(NS(=O)(=O)c3ccc(Cl)cc3)cc2C(=O)N([C@H](C)CO)C[C@H]1C	20	-12	0.44	0.1

Complete entries, looked up by structure. Values in the order: Hedgehog inh | MITF inhib | YB-1 expression | PD-1 reverse act
`Oc1c(C(c2ccncc2)N2CCCC2)ccc2cccnc12` (stereo unspecified) is listed with 35 | 21 | -0.51 | -4.4
`C=CC1(C)OCO/C1=C\C[N+](C)(C)C` (stereo unspecified) is listed with -29 | -5 | 0.32 | 1.8
`Cc1noc(C)c1S(=O)(=O)N(C)C[C@H]1Oc2ccc(NS(=O)(=O)c3ccc(Cl)cc3)cc2C(=O)N([C@H](C)CO)C[C@H]1C` is listed with 20 | -12 | 0.44 | 0.1
`Cc1noc(C)c1NC(=O)N(C)C[C@H]1Oc2ccc(NC(=O)Nc3cccc4ccccc34)cc2C(=O)N([C@@H](C)CO)C[C@@H]1C` is listed with 36 | -1 | -0.35 | 1.7
